Bioassay records from PubChem BioAssay.
H5N1 antiviral: MDCK cell protection from H5N1 avian flu. cytopathic effect, luminescence, 72 h; stronger effect = higher value; no value below 0 was filed and about half of the inactive calls have no number; reference of the scale not given here. AID 740. 0.07% of 96,000 active. inhibition, % at 50 µM; in the data active = inhibition above about 25%
Numbers without * were called inactive; i = inactive. A portion of the library; count on the stated rates, not on these rows.

SMILES	H5N1 antiviral
CC12CCC(C(=O)n3c1nc1ccccc13)C2(C)C (stereo unspecified)	0.7
CCCCNC(=O)c1ccc(S(=O)(=O)c2ccc(Cl)cc2)c(NC(C)=O)c1	0.1
Cc1nc(SCC(=O)NCc2ccco2)[nH]c(=O)c1C	i
O=C1/C(=C/c2ccccc2)CCCc2ccccc21	0.6
CCC(C)NC(=O)C1=C(C)C(=O)OC12CCC(C)CC2 (stereo unspecified)	i
COc1ccc(C(=O)N2CCN(c3ccc(C)c(C)c3)CC2)cc1OC	i
FC(F)(F)c1cccc(NC(=S)Nc2ccc(Cl)cc2Cl)c1	7.2
COc1cccc(CNCCc2c[nH]c3ccccc23)c1OCc1ccc(F)cc1	i
O=C(CN1CCN(C(=O)c2c(F)cccc2F)CC1)Nc1ccccc1F	1.8
O=C(OCCN1CCOCC1)C(c1ccccc1)c1ccccc1	i
CCCCn1c2c(c(=O)n(C)c1=O)C(c1ccc(OC)cc1)N1CCCCCC1=N2 (stereo unspecified)	1.0
CCN(CCCNC(=O)c1ccc(N2CCCC2=O)cc1)c1cccc(C)c1	0.0
CN(C)/C=N/c1ncc(C(=O)c2ccc(Cl)cc2)s1	1.2
Cc1cc(N2CCOCC2)cc(C)[n+]1[O-]	0.7
CCCOc1ccc(C2C(C(=O)c3ccc(C)o3)=C(O)C(=O)N2CCN2CCOCC2)cc1OC (stereo unspecified)	1.4
Clc1ccc(/C=N/Nc2nc(Cl)nc3ccccc23)cc1	i
Cc1ccc(NC(=O)CC(=O)NCCN2CCOCC2)cc1	1.2
COCCNC(=O)CCn1nc(-c2ccc(Cl)cc2)ccc1=O	0.1
C=CCn1c(CNC(=O)c2cccs2)nnc1SCC(=O)Nc1ccc(C(=O)O)cc1	i
Cc1onc(-c2c(F)cccc2Cl)c1C(=O)Nc1sc2c(c1C(N)=O)CCC2	i
O=C(c1ccc(S(=O)(=O)N2CCOCC2)cc1)N(Cc1ccco1)Cc1cccs1	0.3
CC(=O)N1CCc2cc(Br)cc(S(=O)(=O)NCCCN3CCCC(C)C3)c21 (stereo unspecified)	1.3
c1ccc(Cc2nn3c(-c4ccncc4)nnc3s2)cc1	3.0
CCCS(=O)(=O)n1nc(-c2ccc(C)cc2)cc1N	i
Cc1ccccc1OCC(=O)NC1=NCCS1	0.2
CC(C)Nc1nc(-c2ccccc2)nc(-n2ccnc2)n1	i
CCC(=O)OC1(C#CCOc2ccc(OC)cc2)CCN(C)CC1	i
CCN(CC)CCn1c2ccc(Cl)cc2c2nc(C)sc21	i
CN(C1CCCCC1)S(=O)(=O)c1ccc(S(=O)(=O)N2CCN(CCC#N)CC2)cc1	0.9
O=S(=O)(Cc1ccccc1)N1CCc2ccccc21	1.5
Cc1ccc2c(c1)N(CCC(=O)NCC1CCCO1)C(=O)CO2 (stereo unspecified)	i
COc1ccc(OC)c(NC(=O)CSc2nc3ccccc3cc2Cc2ccccc2)c1	i
COc1ccc(CCNC(=O)CCS(=O)(=O)c2cccc3nsnc23)cc1OC	0.4
CC(C)NC(=O)c1ccccc1NC(=O)C1CCCO1 (stereo unspecified)	1.0
COc1cccc(NC(C)C(=O)N2CC(C)OC(C)C2)c1 (stereo unspecified)	i
Cc1cc(C)nc(NC(=O)CSc2nc3ccccc3s2)n1	0.1
CCOC(=O)C1=C(c2ccccc2)N=C2SCC(=O)N2C1c1ccc(OC)c(OC)c1 (stereo unspecified)	0.3
O=c1c2[nH]c3ccccc3c2ncn1C1CCCCC1	i
Cc1cccc(C)c1NC(=O)N1CCC(N2CCCCC2)CC1	i
CC(=O)C1=C(O)C(=O)N(Cc2ccccc2)C1c1cccs1 (stereo unspecified)	i
CCOc1ccc(OCC)c(NC(=O)CSc2nc3c(c(=O)n(C)c(=O)n3C)n2CC)c1	1.7
O=C1[C@@H]2[C@H](C(=O)N1O)[C@H]1C=C[C@@H]2C1	0.4
Cc1ccc(OC(=O)CCC(=O)OCCCC(F)(F)C(F)(F)F)cc1	0.2
O=C1NC2(CCCCC2)NN1c1ccccc1	i
Oc1ccc(Nc2nc(-c3ccc4ccccc4c3)cs2)cc1	i
Cc1cccc(N(CC(N)=O)C2SC(=O)N(c3ccccc3)C2=O)c1 (stereo unspecified)	i
COCCCN(C(=O)c1cccnc1SC)c1c(N)n(Cc2ccccc2)c(=O)[nH]c1=O	0.2
CCCCN(CC)CCNC(=O)C1c2cc(OC)c(OC)cc2C(=O)N2CCc3ccccc3C12 (stereo unspecified)	0.2
Oc1ccccc1Nc1ncnc2c1oc1ccccc12	1.9
Cc1nc2ccccc2n1S(=O)(=O)c1ccc(S(=O)(=O)N2CCCCCC2)cc1	1.8
CCSc1cc(N2CC(C)OC(C)C2)nc(-c2ccccc2Cl)n1 (stereo unspecified)	1.1
Cc1ccc(S(=O)(=O)N[C@H](C(=O)N2CCC3(O)CCCCC3C2)c2ccccc2)cc1 (stereo partly specified)	i
CC(=O)n1c2ccccc2c2ccccc21	i
CCC(C)NC(=O)CSc1nc2ccsc2c(=O)n1NC(=O)c1ccccc1 (stereo unspecified)	0.6
CCc1ccc2nc3c(c(C(=O)O)c2c1)CCC3	1.0
Cc1ccc(S(=O)(=O)/N=C(\c2ccc(F)cc2)n2c(C)nc3ccccc32)cc1	i
COc1ccc(C(=O)CSc2cc(C)nc3nc(C)nn23)cc1OC	1.5
CCCCC[n+]1ccn(-c2nc3ccccc3nc2[N-]S(=O)(=O)c2ccc(C)cc2)c1	i
CCOC(=O)N1CCN(C(=O)Nc2ccc3nc(C)c(C)nc3c2)CC1	0.2
CN(C)c1cccc(N=C2C=C(N3CCOCC3)CC(C)(C)C2)c1	0.8

A draw from above in order of number of heavy atoms, lowest first:
SMILES	H5N1 antiviral
CN(C)/C=N/c1ncc(C(=O)c2ccc(Cl)cc2)s1	1.2
Oc1ccc(Nc2nc(-c3ccc4ccccc4c3)cs2)cc1	i
COc1ccc(C(=O)CSc2cc(C)nc3nc(C)nn23)cc1OC	1.5

The listing continues.
SMILES	H5N1 antiviral
CCN(CC)c1ccc(-c2nn3c(-c4cccnc4)nnc3s2)cc1	2.2
Cc1ccc(-c2nc3ccc(C(=O)O)cc3nc2-c2ccc(C)cc2)cc1	1.9
CC1(C)CC(=O)c2c(-c3cccs3)n[nH]c2C1	0.8
COc1cc(C2Nc3ccccc3C(=O)N2c2ccc3c(c2)OCCO3)ccc1OCC(C)C (stereo unspecified)	i
CCSc1nnc(NC(=O)C(C)C)s1	i
COC(=O)c1ccccc1N1C(=O)[C@@H]2C(c3ccc(Br)cc3)=NO[C@@H]2C1=O	i
CCn1nc(NC(=O)c2ccncc2)c2cc3ccccc3nc21	i
OC1(c2ccc(F)cc2)CCNC1 (stereo unspecified)	i
COC(=O)c1nn(-c2ccccc2)c(Sc2ccccc2)c1/C=N/O	i
O=C(NCC1CCCO1)C1CCN(c2ccc(S(=O)(=O)N3CCCC3)cc2)CC1 (stereo unspecified)	i
Cc1ccc(CN(c2ccc(C(=O)NCc3cccnc3)cc2)S(C)(=O)=O)cc1	0.2
CCCCC1(C(=O)OCC)CC(CN2CCOCC2)OC1=O (stereo unspecified)	i
Cc1cc(Nc2nc3ccccc3nc2Cl)n(-c2ccccc2C)n1	1.0
COc1cccc(C2=NOC(C(=O)N3CCC4(CC3)OCCO4)C2)c1 (stereo unspecified)	i
COC(=O)c1cc(NC(=O)CC2NCCNC2=O)cc(C(=O)OC)c1 (stereo unspecified)	1.3
COC(=O)CSc1nc(SCc2ccccc2Cl)nc2c1CCCC2	i
NC(=O)C1CCN(C(c2ccccc2Cl)c2nnnn2CC2CCCO2)CC1 (stereo unspecified)	i
Cc1nn(Cc2ccccc2)c(C)c1C(=O)OCC(=O)Nc1ccccc1SCC#N	i
c1n[nH]c(NC2=NCCC2)n1	i
COc1ccc(CSc2nc(C)cc(=O)[nH]2)cc1Br	i
Cc1cc(C2(c3cc(C)c(NC(=O)CN4CCOCC4)c(C)c3)CCCCC2)cc(C)c1NC(=O)CN1CCOCC1	i
Cc1ccc(COc2ccc(Br)cc2/C=N/O)cc1	i
Cn1c(=O)c2c(nc(N3CCCCC3)n2CCCNC2=NCCCC2)n(C)c1=O	i
Cc1ccc(N2CCN(CCc3nc4cc(NS(C)(=O)=O)ccc4n3C)CC2)cc1	i
c1ccc(Nc2ccccc2Nc2ccccn2)nc1	4.2
NC(=O)c1ccsc1NC(=O)COC(=O)Cc1ccsc1	1.1
CCOc1ccc(C2C=C(c3ccc(C)cc3)Nc3nnnn32)cc1 (stereo unspecified)	0.6
CCOC(=O)N1CCN(c2ncnc3c2oc2nc(C(C)C)c4c(c23)CCC4)CC1	i
Cc1ccc(NC(=O)CSCC(=O)Nc2ncc3c(n2)CC(c2ccco2)CC3=O)cc1 (stereo unspecified)	1.3
CCOC(=O)c1c(-c2ccccc2)cn2ccccc12	5.9
COc1ccc2oc(C)c(C(=O)NN)c2c1	0.3
COc1ccc(CNC(=O)NCc2ccc(OC)c(OC)c2)cc1OC	1.6
COc1ccc(S(=O)(=O)n2ccc(-c3ccc(OCCN(C)c4ccccn4)cc3)n2)cc1	0.2
CC(C)CN(C(=O)COC(=O)c1cc2c(s1)CCC2)C1CCS(=O)(=O)C1 (stereo unspecified)	1.5
COC(=O)CN1C(=O)C2(OCCCO2)c2cc(Br)ccc21	1.5
CN(c1cccc(NC(=O)COc2ccccc2)c1)S(C)(=O)=O	0.6
O=C(Cc1ccc(-n2c(=S)[nH]c3ccccc3c2=O)cc1)N1CCC(N2CCCCC2)CC1	0.9
COCCCNC(=O)c1cccn2c(=O)c3cc4ccccc4cc3nc12	i
Cc1csc(NC(=O)CSc2ncnc3c2cnn3-c2ccccc2Cl)n1	0.2
CC(C)C(=O)N(Cc1cc2ccccc2[nH]c1=O)C(C)(C)C	i
O=S(=O)(Nc1ccc2nc(-c3ccco3)[nH]c2c1)c1ccccc1	0.5
Cc1cccc(C)c1NC(=O)C(c1cccs1)N(Cc1ccco1)C(=O)Cn1nnc2ccccc21 (stereo unspecified)	i
CCSC1=C(C#N)C(c2ccccc2C)CC(=O)N1 (stereo unspecified)	0.0
O=C(O)c1ccc(Cl)c(NC(=O)C2CCCN2S(=O)(=O)c2cccc3nsnc23)c1 (stereo unspecified)	0.6
CCOc1cc(C=C2C(=O)NC(=O)NC2=O)ccc1OS(=O)(=O)c1ccccc1	i
COc1ccc(C(=O)N/N=C2/SCC(=O)N2Cc2ccc3c(c2)OCO3)cc1OC	1.3
O=C(Nc1nc(-c2ccccc2)cs1)C1CCCN(S(=O)(=O)c2ccccc2)C1 (stereo unspecified)	9.7
CN1C(=O)C2(C(C#N)=C(N)Oc3c2oc(CO)cc3=O)c2ccccc21 (stereo unspecified)	1.2
O=c1c2ccccc2nc2n1C(CSc1ccc(Br)cc1)CN2 (stereo unspecified)	1.6
Clc1ccc2[nH]c(-c3ccccc3)cc2c1	1.8
CS(=O)(=O)N(CC(=O)Nc1ccccc1Sc1ccccc1)C1CCCCC1	0.7
O=C(CN1C(=O)C2CC=C(Cl)CC2C1=O)NCc1ccccc1 (stereo unspecified)	0.6
Cn1cnnc1SCC(=O)Nc1ccc2nc(SCc3ccccc3F)sc2c1	i
COc1ccc(C/C(N)=N/OC(=O)C(c2ccccc2)c2ccccc2)cc1OC	i
Cc1nc2ccc(NC(=O)N3CCSCC3)cc2nc1C	i
CC(=O)CCS(=O)(=O)c1ccc(NC(C)=O)cc1	0.8
Cc1cc(C)c(S(=O)(=O)Nc2ccc(-c3cn4ccccc4n3)cc2)c(C)c1	i
Cc1nn(C)c(C)c1NC(=O)CN1CCC(O)(c2ccc3c(c2)OCO3)CC1	0.1
COc1ccc(CCN2C(=O)CC(N3CCOCC3)C2=O)cc1 (stereo unspecified)	i
CCOC(=O)N1CCN(C(=O)CN(c2cccc(C(F)(F)F)c2)S(C)(=O)=O)CC1	i
Other results
SMILES	H5N1 antiviral
O=C(NCCCn1ccnc1)Nc1ccc(Cl)cc1	1.0
O=C(Cc1cccc2ccccc12)N/N=C/c1ccc(Sc2nc3ccccc3s2)o1	i
Cc1cc(C)n(-c2nc3c(c(=O)[nH]c(=O)n3C)n2Cc2cccc(Br)c2)n1	2.8
COCCN1C(=O)C(CC(=O)Nc2ccc(C(C)=O)cc2)SC1=Nc1ccccc1 (stereo unspecified)	0.6
COc1cccc(C(=O)Nc2ncc3c(n2)CC(c2ccc(OC)cc2OC)CC3=O)c1 (stereo unspecified)	i
Cc1ccccc1Nc1ncnc2c1cnn2-c1ccccc1	i
CCC(=O)c1cc(-c2nc3ccccc3n2C)n(C)c1	1.2
Cn1ccnc1SCC(=O)Nc1ccc2ccccc2c1	1.4
Cc1cc(OCCCn2ccnc2)cc(C)c1Cl	i
O=C(CCCCCN1C(=O)CCC1=O)Nc1ccc(Cl)c(C(F)(F)F)c1	3.1
COc1ccccc1N(C(=O)CNS(=O)(=O)c1ccccc1)C(C(=O)NCc1ccco1)C(C)C (stereo unspecified)	1.5

Another view of 19 compounds above:
Compound,H5N1 antiviral
Clc1ccc2[nH]c(-c3ccccc3)cc2c1,1.8
CS(=O)(=O)N(CC(=O)Nc1ccccc1Sc1ccccc1)C1CCCCC1,0.7
O=C(CN1C(=O)C2CC=C(Cl)CC2C1=O)NCc1ccccc1 (stereo unspecified),0.6
Cn1cnnc1SCC(=O)Nc1ccc2nc(SCc3ccccc3F)sc2c1,i
COc1ccc(C/C(N)=N/OC(=O)C(c2ccccc2)c2ccccc2)cc1OC,i
Cc1nc2ccc(NC(=O)N3CCSCC3)cc2nc1C,i
CC(=O)CCS(=O)(=O)c1ccc(NC(C)=O)cc1,0.8
Cc1cc(C)c(S(=O)(=O)Nc2ccc(-c3cn4ccccc4n3)cc2)c(C)c1,i
Cc1nn(C)c(C)c1NC(=O)CN1CCC(O)(c2ccc3c(c2)OCO3)CC1,0.1
COc1ccc(CCN2C(=O)CC(N3CCOCC3)C2=O)cc1 (stereo unspecified),i
CCOC(=O)N1CCN(C(=O)CN(c2cccc(C(F)(F)F)c2)S(C)(=O)=O)CC1,i
O=C(NCCCn1ccnc1)Nc1ccc(Cl)cc1,1.0
O=C(Cc1cccc2ccccc12)N/N=C/c1ccc(Sc2nc3ccccc3s2)o1,i
Cc1cc(C)n(-c2nc3c(c(=O)[nH]c(=O)n3C)n2Cc2cccc(Br)c2)n1,2.8
COCCN1C(=O)C(CC(=O)Nc2ccc(C(C)=O)cc2)SC1=Nc1ccccc1 (stereo unspecified),0.6
COc1cccc(C(=O)Nc2ncc3c(n2)CC(c2ccc(OC)cc2OC)CC3=O)c1 (stereo unspecified),i
Cc1ccccc1Nc1ncnc2c1cnn2-c1ccccc1,i
CCC(=O)c1cc(-c2nc3ccccc3n2C)n(C)c1,1.2
Cn1ccnc1SCC(=O)Nc1ccc2ccccc2c1,1.4
